# Source: PubChem (several laboratories)
# HNF4A DNA FP – change in binding of human HNF4 alpha to DNA. P41235. HNF4a-FITC DNA binding, fluorescence polarization, 1 h. activity change, % at 10 µM. 0.3% of 360,000 active. AID 1224865; in the data active = activity change above about 30%, passing the limit was not always enough;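 note: controls were the assay level and a saturating level of protein; the project sought stronger binding though the title names inhibitors; some compounds called inactive have numbers as strong as hits; positive values seem to mean higher polarization but the record does not say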
# ALR inh – human ALR oxidase inhibition via reduced H2O2; P55789; purified ALR, DTT oxidation, H2O2 HRP-luminol luminescence; inhibition, % (no concentration beside the values); 3.8% of 290,000 active; AID 485317;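 active = mean and each replicate at 75% or more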;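 note: stock transfer was 7.5 nL into about 7.5 µL; 0% = neutral wells and 100% = wells with inactivated enzyme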
# Target sequence (P55789 whole entry, looked up): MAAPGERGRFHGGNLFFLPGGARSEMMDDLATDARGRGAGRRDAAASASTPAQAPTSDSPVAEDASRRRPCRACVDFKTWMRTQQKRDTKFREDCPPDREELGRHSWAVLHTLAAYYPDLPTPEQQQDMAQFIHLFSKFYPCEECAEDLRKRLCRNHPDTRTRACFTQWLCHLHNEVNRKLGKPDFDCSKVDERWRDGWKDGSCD
# LANA-H2B inh – blocks KSHV LANA binding to histone H2A/H2B; cell-free LANA-H2A/H2B peptide, fluorescence polarization; AID 2629; 0.6% of 320,000 active; Q9QR71; inhibition, % (no concentration beside the values); in the data active = inhibition mostly above about 10%, no sharp cut-off; inactive = mostly below about 6.7%;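 note: stock transfer was 7.5 nL into about 10 µL; 0% = median of vehicle wells and 100% = median of positive control wells; one replicate is shown; the record names a cut of 25% in any replicate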
# Ecoli growth – blocks Escherichia coli growth; OD600, 23 h; hits give low values; OD600 absorbance (no concentration beside the values); 0.21% of 330,000 active; AID 1053175;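 active = OD600 absorbance below the run mean of sample wells minus 3.6 SD, in any replicate, cut at about 0.56 in these data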;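 note: stock transfer was 300 nL into about 60 µL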
# FGF22 binding – binders of recombinant human FGF22 by thermal shift. SYPRO orange fluorescence; percent of sucrose octasulfate shift, DMSO zero. calls only at 9.99 µM. 1.5% of 340,000 active;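 active = melting point raised past a set limit in the mean and every replicate; three in four hits are not shown here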
# UCH37 DUB inh – human UCH37 deubiquitinating enzyme inhibition; purified proteasome/UCH37, Ub-AMC cleavage fluorescence; inhibition, % (test concentration not listed); Q9Y5K5; 0.33% of 330,000 active;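 active = mean of two replicates above 20%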;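 note: 0% = compound-free wells with enzyme and 100% = wells lacking proteasome; stock transfer was 100 nL into about 20 µL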
# Target sequence (Q9Y5K5 whole entry, looked up): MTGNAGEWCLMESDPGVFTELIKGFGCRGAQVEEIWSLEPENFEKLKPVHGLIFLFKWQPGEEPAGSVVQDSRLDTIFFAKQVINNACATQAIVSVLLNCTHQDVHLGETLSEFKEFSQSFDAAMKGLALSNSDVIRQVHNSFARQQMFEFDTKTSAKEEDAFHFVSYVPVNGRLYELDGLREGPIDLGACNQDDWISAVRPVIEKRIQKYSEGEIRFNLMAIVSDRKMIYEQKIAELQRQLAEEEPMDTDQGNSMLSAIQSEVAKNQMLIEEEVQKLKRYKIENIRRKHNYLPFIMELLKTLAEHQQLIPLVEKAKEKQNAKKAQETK
#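 Test system – human UCH37 enzyme supplied as purified proteasome complex · Incubation – 30 min preincubation with enzyme, 25 min cleavage at room temperature · Detection – AMC fluorescence from Ub-AMC cleavage, excitation 355 nm, emission 460 nm · Benchmarks – no-proteasome wells (full inhibition) and compound-free wells (no inhibition)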
# Beta2AR agonist – activates human beta-2 adrenergic receptor causing internalization; 0.43% of 340,000 active; response, % (concentration not given with the values); Am2.2-beta2AR cells, FAP receptor internalization, flow cytometry; reference of the scale not given here; P07550;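 active = response above a set limit, near 3 SD of response in nonfluorescent compounds, cut at about 42% in these data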;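 note: stock transfer was 100 nL into about 11 µL; a reference agonist was the positive control; negative values mostly stem from fluorescent compounds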
# Target sequence (P07550 whole entry, looked up): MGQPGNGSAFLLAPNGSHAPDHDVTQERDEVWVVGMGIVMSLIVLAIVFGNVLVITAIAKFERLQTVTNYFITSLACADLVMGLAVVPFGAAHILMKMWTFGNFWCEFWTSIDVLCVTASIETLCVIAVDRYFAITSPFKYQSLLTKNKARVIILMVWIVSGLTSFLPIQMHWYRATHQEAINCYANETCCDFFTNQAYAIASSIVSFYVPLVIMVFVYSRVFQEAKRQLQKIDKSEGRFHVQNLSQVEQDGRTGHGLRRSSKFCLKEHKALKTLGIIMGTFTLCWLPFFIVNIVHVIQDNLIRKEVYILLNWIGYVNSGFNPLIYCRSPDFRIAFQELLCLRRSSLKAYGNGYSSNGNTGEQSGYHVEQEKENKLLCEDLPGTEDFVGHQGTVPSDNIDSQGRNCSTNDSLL
# Starred values were filed as active, the others as inactive; i = inactive; / = not tested or not shown.
# A first look:
no.	smiles	HNF4A DNA FP	ALR inh	LANA-H2B inh	Ecoli growth	FGF22 binding	UCH37 DUB inh	Beta2AR agonist
1	OCCCCNCc1ccc(OCc2ccccc2Cl)cc1	-0.2	-22.0	3.9	0.649	/	6.0	0.8
2	CCCC(O)(c1ccc(CC)cc1)C(CN1CCOCC1)c1ccccc1 (stereo unspecified)	2.2	-11.1	-4.0	0.651	i	-1.6	13.9

# The listing, from the first entry:
no.	smiles	HNF4A DNA FP	ALR inh	LANA-H2B inh	Ecoli growth	FGF22 binding	UCH37 DUB inh	Beta2AR agonist
1	OCCCCNCc1ccc(OCc2ccccc2Cl)cc1	-0.2	-22.0	3.9	0.649	/	6.0	0.8
2	CCCC(O)(c1ccc(CC)cc1)C(CN1CCOCC1)c1ccccc1 (stereo unspecified)	2.2	-11.1	-4.0	0.651	i	-1.6	13.9
3	COc1ccc(C)cc1S(=O)(=O)N(CC(=O)N1CCCC1)c1ccc(C)cc1	2.6	/	2.3	0.677	i	4.7	-14.8
4	CC1CCN(S(=O)(=O)c2ccc(C(=O)NCc3cccnc3)cc2)CC1	-0.5	-29.0	0.7	0.704	i	3.7	-14.8
5	COc1cccc(NC(=O)C(OC(=O)c2cnc(C)cn2)c2ccccc2)c1 (stereo unspecified)	5.2	/	5.6	0.64	i	2.2	-2.7
6	O=C(Nc1cccc(S(=O)(=O)N2CCCC2)c1)c1ccco1	2.4	/	0.9	0.675	i	0.9	-12.9
7	CCc1c(C)c2ccc(O)c(CN3CCCC3)c2oc1=O	0.4	18.7	3.9	0.612	i	i	-1.8
8	CN1CCC(N(C)C(=S)NCCc2ccccc2)CC1	1.7	-4.0	3.4	0.676	i	-0.2	0.1
9	O=C(COC(=O)C1CC1)Nc1ccccc1Sc1ccccc1	1.2	6.9	1.8	0.673	i	3.0	3.9
10	CSc1ccc(C2C3(C#N)C(N)=NC4(OCCO4)C23C#N)cc1 (stereo unspecified)	-2.4	7.2	2.5	0.695	/	6.7	3.7
11	C[C@H](NC(=O)c1nc[nH]c1C(=O)N[C@@H](Cc1ccccc1)C(=O)OCc1ccccc1)C(=O)OC(C)(C)C	3.5	/	-4.0	/	i	0.9	0.5
12	CC(=O)N1c2ccc(S(=O)(=O)N3CCCC(C(=O)Nc4cc(C)cc(C)c4)C3)cc2CC1C (stereo unspecified)	3.6	-4.9	2.0	0.726	i	7.7	22.9
13	C=CCN(C(=O)c1csnn1)C(C(=O)NC1CCCC1)c1ccc(F)cc1 (stereo unspecified)	4.5	4.0	1.5	0.708	i	1.9	-8.8
14	O=C(NCCN1CCOCC1)c1c(Cl)cccc1Cl	-2.8	-2.5	-3.8	0.712	i	5.3	4.7
15	O=C(CCCNC(=O)c1ccc(Cl)cc1)Nc1cccc(S(=O)(=O)N2CCCCC2)c1	-2.9	-2.7	4.2	0.665	i	5.0	-0.5
16	Cc1cc(C)n2c(SCC(=O)Nc3ccccc3)nnc2n1	0.2	-7.3	0.0	0.675	i	1.6	-11.3
17	CCCCC[C@@H]1C=C(C(=O)O)[C@H](c2ccc(C#N)cc2)N1S(=O)(=O)c1ccc(C)cc1	-1.9	/	/	0.695	/	1.4	2.8
18	CCOC(=O)C1CCCN(C(=O)c2ccccc2NC(=O)C2=C(C)OCCS2)C1 (stereo unspecified)	1.5	-5.6	6.3	0.697	i	0.2	1.1
19	CC(C)=C(NC(=O)c1ccccc1)C(=O)NCCc1nc2ccccc2[nH]1	-3.1	-11.0	0.4	0.685	i	4.6	-1.9
20	Cc1cccc(N(C(=O)Cc2cccs2)C(C(=O)NC2CCCC2)c2ccncc2)c1 (stereo unspecified)	-2.0	/	2.3	0.646	i	2.2	-13.4
21	O=C(COC(=O)CNC(=O)c1ccccc1F)NCCC1=CCCCC1	-0.1	-6.4	2.2	0.676	/	2.1	12.2
22	CCn1c(N2CCC(C)CC2)nc2c1c(=O)n(C)c(=O)n2C	1.9	-4.8	1.7	0.714	i	1.3	-2.7
23	CCOC(=O)c1cnc(SCC(=O)N2CCN(c3ccccc3)CC2)nc1N	-1.9	/	-1.2	0.721	/	3.2	-3.0
24	CCOc1ccc(C2C(C(=O)c3ccc(C)o3)=C(O)C(=O)N2c2nc(C)c(C(=O)OC)s2)cc1 (stereo unspecified)	19.4	97.4*	1.5	0.692	/	-3.0	14.3
25	CSCC(C)N1CCC(n2nccc2NC(=O)c2ccc3c(c2)OCO3)CC1 (stereo unspecified)	-5.2	-1.4	-0.7	0.698	i	-2.8	16.1
26	CC(=O)NC(CC(=O)OC(C)C(=O)Nc1ccc(Cl)cn1)c1ccccc1 (stereo unspecified)	-1.1	-0.2	10.9	0.692	/	1.7	0.7
27	O=C(CSCc1ccccc1)NCc1ccc2c(c1)OCO2	0.1	-12.8	-0.6	0.699	/	0.2	3.9
28	COc1cc(NC(=O)Cc2cccs2)cc(OC)c1	0.8	-8.8	6.1	0.664	/	4.1	-2.9
29	CN(CC(=O)Nc1c(Cl)cccc1Cl)C(=O)c1cc(-c2cccs2)nn1-c1ccccc1	5.4	/	-3.4	/	i	/	-4.0
30	CCOC(=O)C1=C(C)NC(=O)NC1/C(C)=C/c1ccccc1 (stereo unspecified)	2.7	1.6	0.8	0.673	i	1.3	-1.9
31	COc1ccccc1NC(=S)N(Cc1ccccc1)Cc1cccnc1	1.5	/	/	0.678	i	1.6	-4.3
32	COc1cc(Cl)ccc1NC(=S)N(CCN1CCOCC1)C1CCN(C(C)=O)CC1	-1.5	/	-0.3	0.692	i	5.4	-1.6
33	Cc1ccc(N(CC(=O)Nc2cc(C)ccc2C)S(C)(=O)=O)cc1	-2.2	/	2.1	0.666	i	0.8	-4.2
34	CCCCOc1ccc(C(=O)NC(=S)Nc2ccc(CN3CCOCC3)cc2)cc1	-0.9	-6.0	-0.4	0.719	i	6.7	12.2
35	Fc1ccc(-n2cc(-c3ccccc3)c3c(N4CCOCC4)ncnc32)cc1	-0.9	/	-4.8	0.734	i	3.9	12.7
36	COc1ccc(CN2C(=O)C(C)S/C2=N/N=C/c2ccco2)cc1 (stereo unspecified)	4.6	-20.8	-0.4	/	i	/	-5.2
37	CCCn1c(C)cc(C(=O)COC(=O)c2cc(S(=O)(=O)NCC(C)C)c(Cl)cc2Cl)c1C	1.7	/	/	0.819	/	5.8	-0.8
38	CC(C)NC(=S)N1CCN(S(C)(=O)=O)CC1	-3.2	/	1.3	0.706	i	-1.8	-1.3
39	COc1ccc(C(C)=O)cc1COC(=O)c1ccc(C)c(S(=O)(=O)N2CCOCC2)c1	0.8	4.1	-0.6	0.721	i	2.4	4.5
40	Cc1cccc(OCCCC(=O)N2CCCCCC2)c1C	5.7	-8.3	-1.9	0.698	i	2.3	4.5
41	COc1cc(CC(NC(C)=O)C(=O)NC2CCN(c3c(Cc4ccccc4)c(C)nc4ncnn34)CC2)cc(OC)c1 (stereo unspecified)	-1.3	-2.4	0.3	0.678	/	5.6	4.6
42	Cc1cc(N2CCCCC2)n2nc(C)c(-c3ccccc3)c2n1	1.1	/	1.3	0.742	/	-19.3	1.6
43	Cc1ccccc1C(=O)Nc1sc2c(c1C(=O)O)CCC2	0.6	3.7	17.3*	/	i	/	0.6
44	COc1ccc(OCC(=O)NNC(=S)NC(=O)C2CCCCC2)cc1	1.4	26.3	-1.2	/	i	/	7.2
45	CC[C@@H]1[C@H]2CCCC(=O)N3CC[C@@H](C[C@H]1O)[C@@H]23	-1.3	/	-0.8	/	i	1.2	-10.4
46	O=C(NC(=S)NCc1ccccc1)c1ccccc1F	0.9	-11.9	5.2	0.711	/	1.7	-8.1
47	Cc1nc2cc(C(F)(F)F)ccc2n1C1CCN(CC(=O)NC(C)(C)C)CC1	3.6	/	-2.6	0.686	/	4.3	-3.7
48	Cc1cccc(OCCC(=O)Nc2ccc(S(=O)(=O)N3CCCC3)cc2)c1	-0.8	/	-2.8	0.707	/	4.2	-2.5
49	N/C(=N\O)c1ccc(N2CCN(c3ncccc3C(F)(F)F)CC2)nc1	2.7	91.2*	-3.4	/	i	/	2.2
50	O=C(Oc1ccc2c3c(c(=O)oc2c1)CCCC3)c1ccco1	0.0	15.6	-0.7	0.716	/	i	-5.8
51	Cc1ccc(NC(=O)c2ccc3ccccc3n2)cc1S(=O)(=O)N(C)C	-2.3	-0.9	0.4	0.745	i	2.8	-0.8
52	O=C(OCC(=O)N1CCCC1=O)c1cc(Cl)ccc1O	-3.5	-4.9	0.9	0.621	i	-4.8	6.8
53	Cc1ccc(N(CCC#N)C(=O)CSc2nc3ccccc3c(=O)[nH]2)cc1	-1.8	3.2	0.8	0.699	i	4.9	6.2
54	C/C(CCc1ccc2c(c1)OCO2)=N\NC(=S)NC(C)C	0.7	85.1*	1.4	/	i	/	0.2
55	COC(=O)c1ccc(C2c3[nH]c4ccccc4c3C[C@H]3C(=O)N(C)CC(=O)N23)cc1 (stereo partly specified)	-1.8	-4.0	0.6	0.666	i	1.9	1.9
56	COc1ccccc1C(=O)N1CCN(Cc2ccc3c(c2)OCO3)CC1	-4.9	47.0	-3.4	0.71	/	1.2	-1.4
57	COc1ccc(NC(=O)C(NS(=O)(=O)c2cccs2)C(C)C)cc1Cl (stereo unspecified)	3.6	-3.5	0.2	0.673	i	0.5	-2.3
58	O=[N+]([O-])c1cccc(C2=NC(c3ccccc3)CO2)c1 (stereo unspecified)	-2.3	-2.7	-1.5	0.706	i	-1.4	-2.2
59	O=C(NCCN1CCOCC1)c1ccc(/C=C2\Sc3ccccc3N(Cc3ccccc3F)C2=O)cc1	1.9	-2.5	2.0	0.684	i	-21.0	19.9
60	O=C(CCNS(=O)(=O)c1cccs1)NCc1ccco1	-0.2	-8.3	-2.5	0.694	/	3.4	-2.9

# Values in list order from the list.
# ALR inh, compounds 51–59: -0.9, -4.9, 3.2, 85.1*, -4.0, 47.0, -3.5, -2.7, -2.5
# LANA-H2B inh, compounds 51–59: 0.4, 0.9, 0.8, 1.4, 0.6, -3.4, 0.2, -1.5, 2.0
# Beta2AR agonist, compounds 51–59: -0.8, 6.8, 6.2, 0.2, 1.9, -1.4, -2.3, -2.2, 19.9

# The list continues:
no.	smiles	HNF4A DNA FP	ALR inh	LANA-H2B inh	Ecoli growth	FGF22 binding	UCH37 DUB inh	Beta2AR agonist
61	COc1ccc2c(c1OC)C(=O)N(c1nccs1)C2	1.7	/	1.7	0.76	/	-5.6	-0.7
62	Cc1cc(S(=O)(=O)N2CCOCC2)ccc1OCC(=O)NCc1ccccn1	-1.7	-7.0	1.2	0.652	i	3.3	6.1
63	Nc1c(NCCc2ccccc2)c2ccccc2oc1=O	-0.8	98.8*	-0.2	0.723	i	7.7	-8.9
64	O=C(COC(=O)c1ccccc1NC(=O)c1ccccc1)c1ccc([N+](=O)[O-])cc1	4.3	-2.6	0.8	0.697	/	5.0	4.4
65	COc1ccc(CSc2nnc(C)n2N)cc1Br	-0.5	-17.4	-0.1	0.684	/	3.9	-9.8
66	Nc1nnn(CC(=O)N/N=C/c2ccco2)n1	3.8	-5.5	-4.6	/	i	/	-1.2
67	Cn1nc(-c2ccccc2)c(CSc2cccc(Cl)c2)c1Cl	-0.2	-5.1	-0.3	0.694	/	3.1	-12.4
68	CCc1ccc(NC(=O)c2ccc(F)c(S(=O)(=O)N(CC)c3ccccc3)c2)cc1	-6.4	8.8	1.2	0.666	/	2.7	-0.3
69	O=C(COc1ccc2ccccc2c1Br)NCc1ccccn1	-1.8	-25.7	2.2	0.699	i	4.2	-13.0
70	Cc1ccccc1CSc1nnc(-c2ccccc2)c(=O)[nH]1	-0.4	51.6	0.6	0.648	i	5.0	8.5
71	CC(=O)c1ccc(N2CCN(C(=O)Cn3cnc(S(=O)(=O)N4CCCCC4)c3)CC2)cc1	-4.1	-1.3	/	0.641	i	2.1	15.6
72	O=C(NC1CCCc2ccccc21)C1CCN(S(=O)(=O)c2cnc[nH]2)CC1 (stereo unspecified)	2.0	-18.4	6.2	0.72	/	5.4	11.5
73	O=C(Nc1cccc(C(=O)N2CCCC2)c1)C1CC1	3.4	/	/	/	i	/	0.6
74	CCCC12CN3CC(C)(CN(C1)C31C(=O)Nc3ccc(C)cc31)C2=O (stereo unspecified)	4.6	-4.3	4.7	0.592	i	1.7	4.7

# These rows are one share of the data. The share of hits here may be higher or lower than overall.
